From PubChem BioAssay
VDR inh – vitamin D3 receptor (human) inhibition; VDR-SRC2-3 peptide fluorescence polarization, 2 h; Potency, µM, without a hit: max response, negative = inhibition, most hits filed as inhibitors; 0.93% of 400,000 active; active = well fitted inhibition curve with a large enough effect; inconclusive = small, poorly fitted or top-dose-only effect, or another doubt; inactive = no such curve, though single readings can be large or run the other way; also: series mostly up to about 120 µM
Target sequence (P11473 whole entry, looked up): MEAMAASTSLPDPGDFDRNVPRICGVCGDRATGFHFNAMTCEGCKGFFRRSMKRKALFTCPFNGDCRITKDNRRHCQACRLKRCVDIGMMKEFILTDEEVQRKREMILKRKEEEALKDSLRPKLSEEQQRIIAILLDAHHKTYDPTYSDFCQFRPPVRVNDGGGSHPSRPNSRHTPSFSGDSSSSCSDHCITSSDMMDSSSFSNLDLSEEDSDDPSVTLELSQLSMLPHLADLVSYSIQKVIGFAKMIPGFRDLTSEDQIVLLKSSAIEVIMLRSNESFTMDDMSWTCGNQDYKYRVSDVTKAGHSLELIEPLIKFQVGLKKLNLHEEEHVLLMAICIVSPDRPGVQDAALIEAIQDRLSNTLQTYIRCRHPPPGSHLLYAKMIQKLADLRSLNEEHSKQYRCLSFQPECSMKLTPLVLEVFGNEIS
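Two reagent solutions held at 4 deg C in the dark were dispensed, compounds pinned at 23 nl, and the mixture incubated 2 h at room temperature. Read-out: fluorescence polarization of VDR–SRC2-3 peptide binding.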
Numbers without * were called inactive; ? = inconclusive; & = joins results of further samples; [ ] = another dose, or the depositor's remark. % is scaled to controls: 0 for no effect and ±100 for the full control effect; potency is read from the fitted curve at half-maximal effect. Some of the compounds tested; count on the stated rates, not on these rows.

SMILES | VDR inh
Cc1cc(C(=O)Cn2cncn2)c(C)n1CCc1ccc(F)cc1 | -3.2%
Cc1ccc(-c2ccc(CCC(=O)O)n2NC(=O)c2ccco2)cc1 | -1.4%
Cc1ccc(NC(=O)Nc2cc(Cl)ccc2C2COC(=O)C2=N)cc1 (centres undefined) | -5.5%
Cc1c(Cl)c([N+](=O)[O-])nn1CCCC(=O)Nc1cccc(O)c1 | 9.2%
O=C1C2C3C=CC(C3)C2C(=O)N1c1cccc2ccccc12 (centres undefined) | 12.7%
O=C(N/N=C/c1ccc(N2CCOCC2)o1)c1cccc(F)c1 | 39.8µM*
Cc1ccccc1N1CC(C(=O)O)CC1=O (centres undefined) | 11.3%
O=C(NC1CC1)C1CCN(C2CCN(C(=O)CSc3ccccc3)CC2)CC1 | -10.6%
COc1ccc(NC(=O)N2CC3(CCN(C(=O)c4cccc(F)c4)CC3)C2)cc1 | -1.4%
COc1ccc(C(C(=O)NC2CCCC2)N(CCCO)C(=O)Cn2nnc(-c3ccc(C)o3)n2)cc1 (centres undefined) | -12.4%
CCOCCc1c(O)nc(SCC(=O)NCc2ccco2)[nH]c1=O | 11.9%
CC(=O)Oc1cccc(C(=O)Nc2c[nH]c(=O)[nH]c2=O)c1 | 4.7%
COCC(=O)Nc1cc(OC)c(Cl)cc1OC | -19.5%
COc1ccc(SCC(CC(C)C)N2CCN(C)CCC2=O)cc1 (centres undefined) | 3.0%
CC(C)(C)OC(=O)N1CCC(c2c(C(=O)N3CCN(c4ccccn4)CC3)cnn2-c2ccc(F)cc2)CC1 | 8.4%
O=C(C[N+]12CC[N+](CC(=O)c3ccc(F)cc3)(CC1)CC2)c1ccc(F)cc1 | -0.4%
O=C(CSc1cn(CC(=O)N2CCOCC2)c2ccccc12)N1CCOCC1 | 35.2%[activator]
COc1ccc(N(C)C(=O)NCc2noc3ccc(C)cc23)c(OC)c1 | -5.4%
O=C(c1nc(-c2ccc(Cl)cc2)n2c1CCCCC2)N1CCN(c2ccc(F)cc2)CC1 | 6.5%
CC(C)(C)OC(=O)N1CCC(C(=O)Nc2ccc(C(=O)NCCc3ccccc3)cc2)CC1 | 12.8%
CCOc1ccc(C(C)=O)cc1CSC(=N)N | 0.5%
CCOc1ccccc1CN1CCC(CO)(CCOc2ccccc2)CC1 | 15.0%
COC(=O)c1ccc(NC(=O)CSc2nc(=O)[nH]c3c2CCCC3)cc1 | 0.0%
Cc1ccc(C)c(NC(=O)Cn2nnc(-c3ccc(N4CCOCC4)cc3)n2)c1 | -6.7%
CCOC(=O)N1CCC(N2C(=O)c3ccccc3C2=O)CC1 | 7.1%
CCOc1ccc(CNC(=O)Cn2nc(C)c3nn(-c4ccc(Cl)cc4)c(C)c3c2=O)cc1 | 13.3%
Cc1ccc(N2C(=N)/C(=C3/Nc4ccccc4S3)C(c3ccccc3)C2=O)cc1 (centres undefined) | -5.4%
O=C(Nc1ccc(NC(=O)c2ccc(Br)cc2)c(Cl)c1)c1ccc(Br)cc1 | -14.3%
CC(NC(=O)CSc1nc2sc3c(c2c(=O)n1-c1ccccc1)CCCC3)c1ccccc1 (centres undefined) | -6.0%
CCCCN(C(=O)c1ccc2ccccc2c1)c1c(N)n(CCCC)c(=O)[nH]c1=O | -21.5%
CCC(=O)N1CCc2cc(Br)cc(S(=O)(=O)N3CCC(C(=O)NC(C)C)CC3)c21 | -20.6%
COc1ccc([C@H]2CC(=O)C=C(c3cccc(OC(F)(F)F)c3)C2)cc1 | 10.1%
O=C(CSc1nc2ccccc2[nH]1)NCCc1ccc(Cl)cc1 | 4.4%
CC(=O)c1ccc(NC(=O)CSc2nc(=O)n3cccc(C)c3n2)cc1 | 1.0%
CCCc1cc(=O)oc2c(C)c(OCC(=O)N3CCC[C@@H]3C(=O)O)ccc12 | -13.2%
N#CCC1c2ccccc2CCN1C(=O)Nc1ccc(C(F)(F)F)cc1 (centres undefined) | -5.6%
O=S1(=O)CCC(NC(=S)Nc2ccc(Cl)cc2)C1 (centres undefined) | 5.3%
O=C(CN1C(=O)c2ccccc2S1(=O)=O)NCCSCc1c(F)cccc1Cl | 12.2%
Cc1csc(CNc2ncnc3ccc(-c4ccc5c(c4)OCCO5)cc23)c1 | -11.0%
COCCCN(CC(=O)Nc1ccc(N2CCOCC2)cc1)S(=O)(=O)c1ccccc1 | -6.4%
CC(=O)N1CCN(S(=O)(=O)c2cccc(C(=O)NCc3ccc(F)cc3)c2)CC1 | 0.6%
CCC/C=C1/CCCOC(C(=O)NCCOC)(C(F)(F)F)C1 (centres undefined) | ?
COc1ccccc1OCC(=O)NC1CCSc2ccccc21 (centres undefined) | 14.7%
CCCC(=O)Nc1c2c(nn1-c1ccc([N+](=O)[O-])cc1)CS(=O)(=O)C2 | -11.1%
C/C(=N/Oc1nc(C)cc(C)n1)c1ccc(Br)cc1 | 16.5%
CN(C(=O)COC(=O)c1cn(-c2ccccc2)nc1-c1ccccc1)C1CCS(=O)(=O)C1 (centres undefined) | 14.6%
Cc1ccc(NC(=O)C2CCCN(c3cnccn3)C2)c(C)c1 (centres undefined) | -18.0%&6.8%
COc1ccccc1CNC(=O)c1cc(C(C)C)nc2ccccc12 | -6.8%
CCOC(CCc1c(C)nc(NC(C)=O)[nH]c1=O)OCC | -7.5%
CCCc1cc(=O)[nH]c2nnc(SCC(=O)Nc3cccc(C)c3)n12 | 1.9%
Cc1cccc(C)c1NC(=O)CSc1nnc(Cn2nnc(-c3ccccc3)n2)n1-c1ccccc1 | -9.8%
Cn1c(Cc2ccccc2)nnc1SCC(=O)Nc1ccc2c(c1)OCCO2 | -12.1%
CNC(=S)N/N=C(\C)c1cccc([N+](=O)[O-])c1 | 1.0%
Cc1cc(C)n(CC(=O)NNC(=O)c2ccc(S(C)(=O)=O)cc2)n1 | 4.4%
Cn1c(N)c(C(=O)c2ccc(Cl)c(S(=O)(=O)N3CCCCCC3)c2)c(=O)n(C)c1=O | -17.1%
Cc1ccc(CNC(=O)CSc2nc3ccsc3c(=O)n2-c2ccc(Br)cc2)cc1 | 9.2%
O=C(/C=C/c1cccc(F)c1)NC1CCN(Cc2ccccc2)CC1 | 7.9%
COc1ccccc1NC(=O)CN1CC(=O)Nc2ccccc21 | -2.3%
Cc1c2cnn(CC(=O)NCCCN3CC(C)CC(C)C3)c(=O)c2c(C)n1Cc1ccccc1Cl (centres undefined) | 16.7%
CCN(CC)S(=O)(=O)c1cc(NS(=O)(=O)c2c(Cl)cccc2Cl)ccc1C | 1.9%

Grouped by structure: the compounds so far with a Cl atom
SMILES | VDR inh
Cc1ccc(NC(=O)Nc2cc(Cl)ccc2C2COC(=O)C2=N)cc1 (centres undefined) | -5.5%
Cc1c(Cl)c([N+](=O)[O-])nn1CCCC(=O)Nc1cccc(O)c1 | 9.2%
COCC(=O)Nc1cc(OC)c(Cl)cc1OC | -19.5%
O=C(c1nc(-c2ccc(Cl)cc2)n2c1CCCCC2)N1CCN(c2ccc(F)cc2)CC1 | 6.5%
CCOc1ccc(CNC(=O)Cn2nc(C)c3nn(-c4ccc(Cl)cc4)c(C)c3c2=O)cc1 | 13.3%
O=C(Nc1ccc(NC(=O)c2ccc(Br)cc2)c(Cl)c1)c1ccc(Br)cc1 | -14.3%
O=C(CSc1nc2ccccc2[nH]1)NCCc1ccc(Cl)cc1 | 4.4%
O=S1(=O)CCC(NC(=S)Nc2ccc(Cl)cc2)C1 (centres undefined) | 5.3%
O=C(CN1C(=O)c2ccccc2S1(=O)=O)NCCSCc1c(F)cccc1Cl | 12.2%
Cn1c(N)c(C(=O)c2ccc(Cl)c(S(=O)(=O)N3CCCCCC3)c2)c(=O)n(C)c1=O | -17.1%
Cc1c2cnn(CC(=O)NCCCN3CC(C)CC(C)C3)c(=O)c2c(C)n1Cc1ccccc1Cl (centres undefined) | 16.7%
CCN(CC)S(=O)(=O)c1cc(NS(=O)(=O)c2c(Cl)cccc2Cl)ccc1C | 1.9%

(further entries)
SMILES | VDR inh
CCCC(=O)Nc1nc(C)c(-c2csc(Nc3ccc(Cl)cc3)n2)s1 | -17.0%
COc1ccccc1N1CCN(C(=O)Cc2cccs2)CC1 | 1.5%
COc1ccc(CC(=O)NC(C)c2nnc(SCCOc3ccc(OC)cc3)n2C)cc1 (centres undefined) | 11.1%
O=C(c1cncc(Br)c1)N1CCCc2ccccc21 | 6.2%
CCN(CC)S(=O)(=O)c1ccc(NC(=O)c2cccc3c2C(=O)N(CCOC)C3)cc1 | -5.9%
CCC(C(=O)NC1CC(C)(C)NC(C)(C)C1)c1ccccc1 (centres undefined) | -3.2%
CCc1cc2c(NCc3ccccc3)nc(C)nc2s1 | -12.0%
CCSc1nc2sc3c(c2c(=O)n1-c1ccc(C)cc1)CCN(C)C3 | 0.5%
CCc1ccc(CNC(=O)C2CC(=O)N(C3CCCC3)C2)cc1 (centres undefined) | 6.7%
O=C(O)c1c[nH]c2c(C(F)(F)F)cccc2c1=O | -2.0%
COC/C=C/C1=CC2=CC(=O)C(C)(OC(=O)c3cnc4ccccc4n3)C(=O)C2=CO1 (centres undefined) | 0.4%
Cc1c(F)cccc1NS(=O)(=O)c1ccc2c(c1)c(=O)n(C)c(=O)n2C | 7.0%
ONC(=Nc1ccc(Cl)cc1)c1ccccc1Cl | -10.8%
COC(=O)c1c(-c2ccc(OC)cc2)oc2ccccc12 | ?
CC(OC(=O)c1ccc(NC(=O)CC#N)cc1)C(=O)NC(=O)NC1CCCCC1 (centres undefined) | 5.6%
O=C(N/N=C/c1ccc([N+](=O)[O-])o1)c1ccc(NS(=O)(=O)c2cccs2)cc1 | -4.6%
CCn1cc([N+](=O)[O-])c(C(=O)Nc2c(C)nn(Cc3cccc(F)c3)c2C)n1 | -22.4%
CCCCN(C(=O)c1cccc(S(=O)(=O)N2CCN(C)CC2)c1)c1c(N)n(CCCC)c(=O)[nH]c1=O | -9.0%
CC[C@H](C)[C@H]1CNC(=S)N1CC1CCN(CCC23CC4CC(CC(C4)C2)C3)CC1 | ?
O=C(NNC(=O)c1cc(Cl)ccc1O)c1cccc(S(=O)(=O)N2CCOCC2)c1 | 5.3%
O=C1/C(=C/c2ccco2)SC(=S)N1CC1CCCO1 (centres undefined) | -2.6%
CC1=C(C)CC(C(=O)NNC(=O)c2cccc(Cl)c2)C(C(=O)O)C1 (centres undefined) | -6.0%
O=C(CC(C(=O)O)P(=O)(c1ccccc1)c1ccccc1)c1ccccc1 (centres undefined) | 4.0%
Cc1c(C(=O)NCCn2ccc3ccccc32)cccc1[N+](=O)[O-] | -5.7%
Cc1[nH]nc2nc(SCC(=O)NCCC3=CCCCC3)n(-c3ccc(Br)cc3)c(=N)c12 | -6.3%
O=C(CCSCCc1ccccn1)Nc1cc(F)ccc1F | 2.0%&12.1%
COc1cc(C(=O)NCCCCc2ccccc2)cc(OC)c1OC | -5.5%
CCOCCCNC(=S)N1CCN(Cc2ccco2)CC1 | -1.8%
COc1ccc(-n2c(C)cc(C(=O)Cn3nnc4ccccc4c3=O)c2C)cc1 | -7.1%
CN(c1ccccc1)S(=O)(=O)c1cc(C(=O)Nc2nc3ccccc3[nH]2)ccc1Cl | 22.7%
CC(=O)NCCc1cnc[nH]1 | -13.3%
CCCCOc1ccc(N(CC(=O)NC(C)(C)CC)C(=O)CCC(=O)Nc2ccccn2)cc1 | ?
CCOC(=O)C1CCN(C(=O)c2cccc(S(=O)(=O)NCc3ccccc3)c2)CC1 | -8.8%
Cc1ccc(OCc2cc(=O)n3c(-c4ccccc4)csc3n2)cc1 | 0.2%
COc1ccc(NC(=O)Cn2c(-c3ccccc3)cn(-c3ccc(C)cc3)c2=O)cc1 | -1.5%
CC(C)(C)c1ccc(NC(=O)NCc2ccco2)cc1 | -8.3%
O=C(COc1ccc(CO)cc1Cl)Nc1ccc(F)cc1 | 27.5%
Cc1ccc(Oc2ncnc(N)c2[N+](=O)[O-])cc1C | -11.9%
Cc1oc2c(cc(NS(=O)(=O)c3cccs3)c3ccccc32)c1C(=O)OC(C)C | -16.4%
CCc1nnc(NC(=O)CSc2nnc(-c3ccccc3O)n2-c2ccc(C)cc2C)s1 | 11.9%
COc1ccc(NC(=O)CSc2nnc(C3CCCCC3)n2N)cc1 | -3.4%
CC(C)(CC(=O)O)CC(=O)Nc1cc(C(F)(F)F)cc(C(F)(F)F)c1 | -20.1%
CC(=O)Nc1cccc(C(=O)N2CCN(S(=O)(=O)Cc3ccccc3)CC2)c1 | -11.7%
CN(CC(=O)Nc1ccc(F)cc1)C(=O)COC(=O)/C=C/c1ccccc1[N+](=O)[O-] | 2.9%
Cc1ccc(NC(=O)c2cccc(N3CCCS3(=O)=O)c2)cc1C | -0.1%
CCCCOc1ccc(C(=O)Nc2sc3c(c2C(=O)OCC)CCCCC3)cc1 | 10.8%
O=C(c1ccco1)N1CCN=C1SCc1ccccc1Cl | -1.0%
O=C(NC1CCCCC1)c1cc(-c2ccccc2Cl)on1 | 0.9%
COc1ccccc1NC(=O)C1CC(C)OC1=O (centres undefined) | ?
COc1ccccc1NS(=O)(=O)c1cc(C(=O)NCCC(C)C)ccc1F | 18.8%
CC(=O)NCCc1ccc(S(=O)(=O)N2CCN(c3nc(-c4ccccc4)c(C)s3)CC2)cc1 | 15.9%
Cc1csc(NC(=O)CSc2nc3ccccc3s2)n1 | -6.2%
COc1cc(NC(=O)c2ccnn2C)c(OC)cc1Cl | 16.5%
CCN(c1ccccc1)S(=O)(=O)c1ccc(OC)c(NC(=O)C2=NN(c3ccccc3)C(=O)CC2)c1 | 11.3%
CCOC(=O)c1ccc(O)cc1 | 0.2%
CCNC(=O)CN(CCc1ccccc1)S(C)(=O)=O | 4.4%
CCC(=O)Nc1cccc(NC(=O)CSc2nnnn2Cc2ccccc2)c1 | -10.3%
CCOC(=O)C1C(=O)C=C(c2ccc([N+](=O)[O-])cc2)CC1c1ccccc1 (centres undefined) | 2.5%
COc1ccc(CCN2C(=O)N(c3ccc(OC)cc3)C(=O)C2CC(=O)Nc2ccccc2)cc1 (centres undefined) | 2.0%
CCCCOC(=O)c1ccc(NC(=O)c2ccccc2OC)cc1 | -24.6%
CCCc1cc(=O)[nH]c(Nc2ccccc2O)n1 | 16.8%
O=C(COc1ncnc2ccccc12)NCc1ccc2c(c1)OCO2 | 19.2%
